TRPML1 agonist: activates the human TRPML1 channel; Q9GZU1; TRPML1-expressing cells, Ca2+ dye fluorescence, FDSS; host cell line not named in the record; reference of the full effect not given here; activation, % (concentration not given with the values); hit rate 0.12% among 410,000; AID 624414; in the data active = activation above about 50%; inconclusive = about 30% to 50%; inactive = below about 30%; note: 0% is about no effect; the text of the record puts the active cut at 80%
Target sequence (Q9GZU1 whole entry, looked up): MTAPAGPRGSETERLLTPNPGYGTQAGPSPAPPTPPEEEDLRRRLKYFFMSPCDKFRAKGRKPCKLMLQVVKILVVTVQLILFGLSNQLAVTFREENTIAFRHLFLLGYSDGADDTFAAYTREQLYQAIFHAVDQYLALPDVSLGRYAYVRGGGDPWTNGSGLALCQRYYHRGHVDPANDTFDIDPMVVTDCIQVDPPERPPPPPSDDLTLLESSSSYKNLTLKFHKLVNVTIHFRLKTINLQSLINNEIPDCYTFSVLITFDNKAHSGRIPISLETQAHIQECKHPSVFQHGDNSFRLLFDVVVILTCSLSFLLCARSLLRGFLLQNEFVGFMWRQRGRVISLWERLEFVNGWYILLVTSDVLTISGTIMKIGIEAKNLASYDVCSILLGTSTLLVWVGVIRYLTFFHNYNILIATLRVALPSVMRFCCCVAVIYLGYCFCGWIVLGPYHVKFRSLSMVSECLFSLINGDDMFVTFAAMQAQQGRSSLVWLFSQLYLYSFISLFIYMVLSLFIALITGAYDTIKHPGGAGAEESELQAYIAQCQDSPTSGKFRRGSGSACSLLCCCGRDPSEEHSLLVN
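Kinetic FDSS Ca2+ read in Tet-induced TRPML1-DL cells (ABD Ca8 dye plus quencher, 45-90 min RT loading): baseline, then compound, then 110 s agonist window; EC80 agonist 54-4 at 4uM final added afterwards for a 110 s antagonist window.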
gsp antag: gsp mutant antagonism; gsp-mutant cells, cAMP HTRF, 30 min; control for the full effect not named in the record; Potency, µM (series often up to 76.9 µM), for inactives: at the top dose activity change, negative = inhibition, hits mostly inhibitors; hit rate 0.4% among 340,000; AID 624288; active = falling curve of any shape with a large fitted effect; inconclusive = falling curve, mostly with a smaller effect; inactive = flat or rising curve; cell line not stated here;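 note: intracellular cAMP measured with PDE inhibitor Ro 20-1724 present during compound exposure; potency is the fitted concentration of half-maximal effect; % is set by controls: 0 for no effect and ±100 for the full control effect; nearly all actives have a fitted effect of over 65% in size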
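Cells in G418 medium, seeded 16-24 h, 37C; buffer exchange to DPBS + 1 mM CaCl2, 0.5 mM MgCl2, 0.05% BSA; cpds in DMSO + […] (300 uM stock), 30 min 37C; HTRF cAMP detection.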
ClpP mod: qHTS Assay for Activators of ClpP | ATP-dependent Clp protease proteolytic subunit (Bacillus subtilis (strain 168)), P80244 | purified B. subtilis ClpP, FRET peptide cleavage, 20 min | Potency, µM (series often up to 57.5 µM), inactives show top-dose activity change, negative = active | hit rate 1.9% among 340,000; active = well fitted falling curve with a large enough effect; inconclusive = small, poorly fitted or top-dose-only effect; inactive = no such curve, though single readings can be large or run the other way; note: potency is the fitted concentration of half-maximal effect; the source files actives as falling curves though it sought activators and does not explain the sign; nearly all actives have a fitted effect of over 65% in size; many hits overshoot -100%
Target sequence (P80244 whole entry, looked up): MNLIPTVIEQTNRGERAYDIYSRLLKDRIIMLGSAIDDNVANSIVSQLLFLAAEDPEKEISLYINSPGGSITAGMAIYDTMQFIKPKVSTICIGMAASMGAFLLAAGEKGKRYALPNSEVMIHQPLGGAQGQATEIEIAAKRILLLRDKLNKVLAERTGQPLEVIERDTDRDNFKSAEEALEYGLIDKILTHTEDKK
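FRET quenching reversal measured ClpP activation: 10 microg/mL B. subtilis ClpP at pH 8 with the FRET-FV decapeptide, read at 430 nm after 320 nm excitation. The 20-min minus 0-min signal was scaled between DMSO/no-enzyme wells and ADEP (5.8 microM final).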
gsp ag: gsp mutant agonism; Potency, µM (top dose mostly 76.9 µM), for inactives: at the top dose activation (cAMP increase), most hits filed as activators; gsp mutant cells, cAMP HTRF, 30 min; control for the full effect not named in the record; AID 624287; hit rate 0.13% among 340,000; active = well fitted activation curve with a large enough effect; inconclusive = small, poorly fitted or top-dose-only effect, or another doubt; inactive = no such curve, though single readings can be large or run the other way; cell line not stated here;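 note: phosphodiesterase inhibitor Ro 20-1724 added with compounds to block cAMP breakdown; potency is the fitted concentration of half-maximal effect; nearly all actives have a fitted effect of over 60% in size; about a fifth of the inactives were tested at one dose only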
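Cells in DMEM/10% FBS with G418 were pretreated with compounds in DMSO plus […] (300 uM stock) for 30 min at 37C. cAMP was measured by HTRF (cAMP-d2 plus anti-cAMP antibody-K) after 30 min at room temperature.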
Menin MLL FP FL: menin-MLL binding inhibition, fluorescein peptide; AID 1766; FP activity change, % at 61.4 µM; 290,000 tested, under 10 active; Fluorescence polarization, fluorescein-MLL peptide displacement from menin; inconclusive = falling polarisation curve, or a change in total fluorescence; inactive = total fluorescence flat and polarisation flat or rising; no compound was filed as active; the % refers to the polarisation; negative = inhibition;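 note: % of control where 0% means no effect; inhibitors lower the polarisation; unlabelled MLL peptide was the positive control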
TRPML1 inh: human mucolipin-1 channel inhibition; hit rate 0.02% among 390,000; TRPML1-inducible cells, Ca2+ dye fluorescence, FDSS; hits give low values; inhibition of EC80 agonist-evoked calcium signal; Q9GZU1; AID 624415; activity change, negative = inhibition, % (test concentration not listed); in the data active means activity change below about -50%; inconclusive means about -30% to -50%; inactive means above about -30%;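 note: stimulus is agonist 54-4 at its EC80 concentration; % is set by controls: 0 for no effect and ±100 for the full control effect; compound concentration not given in the record; the text of the record puts the active cut at -80%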
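TRPML1-DL cells, Tet-induced overnight (~16 h, 37 °C) at 1,500 cells/well, were loaded with Ca8 no-wash dye plus quencher for 45-90 min at room temperature. Compounds were pinned during FDSS kinetic reading; agonist 54-4 at EC80 (4 uM final) then added.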
Starred values were filed as active, the others as inactive; [ ] = another dose, or the depositor's remark.

`CN(CC1COc2ccccc2O1)C(=O)c1cc(COc2c(F)cccc2F)on1` (configuration not stated) gave TRPML1 agonist -0.2, gsp antag 0%, ClpP mod 0.8%, gsp ag -16%[15.4 µM] and TRPML1 inh 5.
`COc1ccccc1C(=O)Nc1ccc(OCC(=O)N2CCCCC2)cc1` gave TRPML1 agonist -0.7, gsp antag -1%, ClpP mod 0.7%, gsp ag 4% and TRPML1 inh 47.
`COc1ccc(NC(=O)c2oc3ccccc3c2NC(=O)C23CC4CC(CC(C4)C2)C3)c(OC)c1` gave TRPML1 agonist -0.6, ClpP mod inconclusive and TRPML1 inh 23.
`O=S(=O)(c1ccc(S(=O)(=O)n2cnc3ccccc32)cc1)N1CCCCCC1` gave TRPML1 agonist -0.6, gsp antag 11%, ClpP mod 2.1%, gsp ag 3%, Menin MLL FP FL 5.1 and TRPML1 inh -18.
`COc1ccc(-c2n[nH]c(=S)n2-c2ccccc2C)cc1` gave TRPML1 agonist -0.4, gsp antag -7%, ClpP mod -0.3%, gsp ag 9%[15.4 µM], Menin MLL FP FL 0.2 and TRPML1 inh -10.
Screening COc1ccc(CN2CCN(C(=O)CCC(=O)Nc3nnc(C(C)C)s3)CC2)cc1F returned TRPML1 agonist -0.2, gsp antag -3%, ClpP mod -0.9%, gsp ag -1% and TRPML1 inh 6.
For CC(=O)Nc1cc(C(=O)N2CCN(C)CC2)ccc1S(=O)(=O)c1ccc(C)cc1 the results were TRPML1 agonist -0.1, gsp antag 6%, ClpP mod -1.7%, gsp ag -33%, Menin MLL FP FL 1.8 and TRPML1 inh -9.
For O=C(Nc1nccs1)c1ccc(-c2ccc(Cl)cc2)o1 the results were TRPML1 agonist 1.7, gsp antag -29%, ClpP mod -16%, gsp ag inconclusive, Menin MLL FP FL 6.9 and TRPML1 inh 1.
For O=C(Nc1nnc(Cc2ccccc2)s1)C1CCC1 the results were TRPML1 agonist 0.1, gsp antag 5%, ClpP mod -1.6%, gsp ag -47%[inhibitor], Menin MLL FP FL 2.7 and TRPML1 inh -11.
Cc1ccc(N2CC(C(=O)Nc3ccc(S(=O)(=O)N4CCOCC4)cc3)CC2=O)cc1Cl (configuration not stated) was read as TRPML1 agonist 0.0, gsp antag 1%, ClpP mod -0.5%, gsp ag inconclusive and TRPML1 inh -6.
For COc1ccc(N2CCN(C(=O)CNC(=O)c3cccc(Br)c3)CC2)cc1 the results were TRPML1 agonist -0.6, gsp antag -6%, gsp ag -10%[15.4 µM], Menin MLL FP FL -1.8 and TRPML1 inh 2.
`COc1ccc(N2CC(NC(=O)/C=C\c3ccc4c(c3)OCO4)CC2=O)cc1OC` (configuration not stated) gave TRPML1 agonist -1.1, ClpP mod 3.7% and TRPML1 inh 21.
`CCOC(=O)c1cnc(-c2ccccc2)[nH]c1=O` gave TRPML1 agonist 2.1, gsp antag -1%, ClpP mod -8.0%, gsp ag -14%, Menin MLL FP FL -0.4 and TRPML1 inh -11.
Screening O=C1C=C(c2ccc(Cl)c(C(F)(F)F)c2)C[C@@H](c2ccc3c(c2)OCO3)C1 returned TRPML1 agonist 0.2, gsp antag -4%, ClpP mod -5.4%, gsp ag -46%[inhibitor] and TRPML1 inh 15.
Screening CC1(C)CC(=O)C(C(=S)Nc2ccc(F)cc2)=C(NCCN2CCOCC2)C1 returned TRPML1 agonist 1.2, gsp antag 6%, ClpP mod 2.0%, gsp ag 11%, Menin MLL FP FL 6.8 and TRPML1 inh -5.
Screening Cc1ccccc1S(=O)(=O)Cc1ccc(C(=O)NCCN(C)Cc2ccccc2)o1 returned TRPML1 agonist 0.7, gsp antag 4%, ClpP mod -2.7%, gsp ag 15%, Menin MLL FP FL 1.4 and TRPML1 inh -2.
`CC(C)NC(=O)c1ccccc1NS(=O)(=O)c1ccc(Br)s1` gave TRPML1 agonist 0.0, gsp antag -13%, ClpP mod 0.2%, gsp ag -2%, Menin MLL FP FL -0.6 and TRPML1 inh 3.
`N/C(=N\OC(=O)c1ccc(F)cc1)c1ccccc1` gave TRPML1 agonist -0.4, gsp antag 6%, ClpP mod -1.6%, gsp ag inconclusive, Menin MLL FP FL 0.9 and TRPML1 inh 4.
`O=C(COC(=O)c1cnccn1)Nc1ncc(C(F)(F)F)cc1Cl` gave TRPML1 agonist 0.5, gsp antag -2%, ClpP mod 1.8%, gsp ag 10%[15.4 µM] and TRPML1 inh 11.
C=CCNC(=S)NNC(=O)C(CCCC)CC(O)COCC(C)C (configuration not stated) was read as TRPML1 agonist 0.2, gsp antag 10%, gsp ag 18%[15.4 µM], Menin MLL FP FL 3.1 and TRPML1 inh -5.
Cn1c(=O)cc(SCC(=O)N2CCOCC2)c2ccc(Cl)cc21 was read as TRPML1 agonist 0.1, gsp antag -19%, ClpP mod -17%, gsp ag inconclusive, Menin MLL FP FL 1.7 and TRPML1 inh 9.
`O=C(/C=C/c1ccc(Cl)cc1Cl)c1nc2ccccc2[nH]1` gave TRPML1 agonist 1.9, gsp antag 14%, ClpP mod -8.2%, gsp ag 20%, Menin MLL FP FL 0.2 and TRPML1 inh 26.
`O=C(N/N=C/c1cccnc1)c1cccc(N2CCCC2=O)c1` gave TRPML1 agonist -1.0, gsp antag -3%, gsp ag inconclusive, Menin MLL FP FL 3.3 and TRPML1 inh -7.
Screening COc1ccccc1OCCn1c(=O)sc2ccccc21 returned TRPML1 agonist -0.1, gsp antag -5%, ClpP mod -1.9%, gsp ag -5%, Menin MLL FP FL 7.2 and TRPML1 inh 35.
For Cc1ccn2c(Nc3ccc4c(c3)OCCO4)c(-c3ccc(N(C)C)cc3)nc2c1 the results were TRPML1 agonist -0.4, ClpP mod inconclusive and TRPML1 inh -7.
COc1ccccc1N(CC(=O)NC1CCCC1)C(=O)c1oc(C(C)(C)C)cc1C was read as TRPML1 agonist inconclusive, gsp antag -26%, gsp ag 9%, Menin MLL FP FL 4.0 and TRPML1 inh -27.
For CCCS(=O)(=O)NC(=O)C1(C)CCN(C(=O)Cc2ccc(OC)cc2)C1 (configuration not stated) the results were TRPML1 agonist 0.1, ClpP mod -0.9% and TRPML1 inh 4.
For CC1C=CCC2C(=O)N(c3ccccc3OC(=O)c3ccco3)C(=O)C12 (configuration not stated) the results were TRPML1 agonist 0.4, gsp antag 17%, ClpP mod -0.2%, gsp ag inconclusive, Menin MLL FP FL 1.4 and TRPML1 inh -4.
`Cc1onc(-c2ccccc2Cl)c1C(=O)Nc1ccc(S(=O)(=O)NCC2CCCO2)cc1` (configuration not stated) gave TRPML1 agonist 0.5, gsp antag -9%, ClpP mod 1.0%, gsp ag -4%, Menin MLL FP FL 0.2 and TRPML1 inh 27.
O=S(=O)(c1cccc(C(F)(F)F)c1)N1CCC(O)(c2cccnc2)CC1 was read as TRPML1 agonist 0.2, gsp antag 5%, ClpP mod -2.6%, gsp ag 1%, Menin MLL FP FL 6.3 and TRPML1 inh 4.
`COc1ccc(C(=O)COc2ccc(C(C)=O)cc2OC)cc1OC` gave TRPML1 agonist 0.4, gsp antag -2%, ClpP mod -1.5%, gsp ag 4% and TRPML1 inh -8.
`O=C(NC1CCCC1)c1cccc(S(=O)(=O)N2CCCCC2)c1` gave TRPML1 agonist -0.1, gsp antag 2%, ClpP mod -1.5%, gsp ag -23%, Menin MLL FP FL 0.1 and TRPML1 inh 5.
O=C(NNc1nc(Nc2ccccc2)nc(N2CCOCC2)n1)Nc1ccc(Cl)cc1 was read as TRPML1 agonist 2.9, gsp antag 1%, gsp ag 6%[15.4 µM], Menin MLL FP FL -1.9 and TRPML1 inh -20.
C=CCn1c(=O)c(C(=O)Nc2cc(C)ccn2)c(O)c2ccccc21 was read as TRPML1 agonist -0.1, gsp antag 4%, ClpP mod -0.7%, gsp ag -6%[15.4 µM], Menin MLL FP FL -3.8 and TRPML1 inh 13.
For NS(=O)(=O)c1ccc(CCNC(=O)C2CCCN2C(=O)c2cccs2)cc1 (configuration not stated) the results were TRPML1 agonist 0.1, ClpP mod -1.8%, gsp ag 9% and TRPML1 inh -12.
For CCC(C)NC(=O)c1cn(CC)c2ccc(S(=O)(=O)N3CCCCCC3)cc2c1=O (configuration not stated) the results were TRPML1 agonist 0.2, gsp antag -18%, gsp ag 21%, Menin MLL FP FL -1.6 and TRPML1 inh 10.
For O=C1CCC(=O)N1c1ccc(S(=O)(=O)Nc2cccc([N+](=O)[O-])c2)cc1 the results were TRPML1 agonist -0.1, gsp antag 15%, ClpP mod -0.6%, gsp ag inconclusive, Menin MLL FP FL -0.7 and TRPML1 inh 6.
Screening CC(C)(C)NC(=O)CN(CCc1ccccc1)C(=O)c1csnn1 returned TRPML1 agonist 0.4, gsp antag -5%, gsp ag -2%[15.4 µM], Menin MLL FP FL -0.7 and TRPML1 inh 7.
Screening COc1cccc(C(C(=O)NC2CCCC2)N(CC2CCCO2)C(=O)Cc2cccs2)c1 (configuration not stated) returned TRPML1 agonist -1.1, gsp antag -1%, gsp ag 1%, Menin MLL FP FL 0.3 and TRPML1 inh -3.
Screening Cc1ccc(C)c(N2CCN(C(=O)CCc3nc4ccccc4[nH]3)CC2)c1 returned TRPML1 agonist 0.3, gsp antag -23%, ClpP mod -0.3%, gsp ag inconclusive, Menin MLL FP FL 4.5 and TRPML1 inh -9.
For CCO/N=C/C(=O)Nc1ccc(F)cc1F the results were TRPML1 agonist 0.9, gsp antag 11%, ClpP mod -1.8%, gsp ag 4%, Menin MLL FP FL -0.8 and TRPML1 inh -3.
`C=CCNC(=O)c1ccc(C(=O)c2ccccc2)cc1` gave TRPML1 agonist 1.0, gsp antag 10%, ClpP mod 0.8%, gsp ag -1%, Menin MLL FP FL 0.1 and TRPML1 inh 3.
O=C(CCNc1n[nH]c(=O)[nH]c1=O)N/N=C\c1ccc(Br)cc1 was read as TRPML1 agonist 2.5, gsp antag 8%, ClpP mod -5.9%, gsp ag 1%, Menin MLL FP FL 1.1 and TRPML1 inh 26.
Screening CCCCNC(=O)c1onc(CSc2cccc(Cl)c2)c1C(=O)O returned TRPML1 agonist -0.6, gsp antag -9%, ClpP mod 0.8%, Menin MLL FP FL -5.4 and TRPML1 inh 7.
`COc1ccc(C(CNC(=O)c2cccc(NS(=O)(=O)c3ccc(C)c(F)c3)c2)N(C)C)cc1` (configuration not stated) gave TRPML1 agonist 0.9, gsp antag 1%, gsp ag 8%[15.4 µM] and TRPML1 inh -4.
